High-throughput results: PubChem, several laboratories
Ecoli rRNA inh – inhibits bacterial ribosomal RNA function over humanized ribosomes. E. coli WT GFP vs humanized-ribosome RFP mutants, fluorescence, 24 h; active compounds read low; DMSO median 0, no signal -100. GFP signal change (wild-type ribosome), % (test concentration not listed). 350,000 compounds, 1.6% hits;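 active means significant combined selectivity score with lowered wild-type GFP, culture density cut under 30%, mutant RFP and density less affected; inactive means any of these conditions unmet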; further: one replicate is shown; some compounds called inactive have numbers as strong as hits
A1 inh – inhibitors of the anti-apoptotic protein A1, read as caspase activation; MEF A1-2A-BIM cells, Caspase-Glo 3/7 luminescence, 3 h; percent of clofoctol response, vehicle zero; caspase activation, % (concentration not given with the values); 330,000 compounds, 0.066% hits; AID 2462;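 active means over half of replicate activation scores above 10%, or exactly half above 10 with the replicate mean above 10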;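 further: wells of about 30 µL received 50 nL stock; many hits fall short of the cut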
LANA-H2A inh – blocks KSHV LANA binding to histone H2A/H2B | 320,000 compounds, 0.6% hits | AID 2629 | inhibition, % (no concentration beside the values) | cell-free LANA-H2A/H2B peptide, fluorescence polarization; in the data active means inhibition mostly above about 10%, no sharp cut-off; inactive means mostly below about 6.7%;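 further: stock transfer was 7.5 nL into about 10 µL; 0% = median of vehicle wells and 100% = median of positive control wells; one replicate is shown; the record names a cut of 25% in any replicate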
T cruzi repl – T. cruzi replication inhibition; T. cruzi beta-gal in NIH3T3, luminescence, 90 h; AID 1885; 300,000 compounds, 1.4% hits; inhibition, % (concentration not given with the values);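 active means mean inhibition across valid replicates above about 55%, limit read from the data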;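 further: signal also drops with host cell toxicity which is not excluded here; 0% = plate median of DMSO wells and 100% = zero luminescence signal; higher percent means less beta-gal luminescence so fewer parasites; stock transfer was 50 nL into about 50 µL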
Beta apoptosis – beta cell apoptosis inhibition. protection from apoptosis, % (no concentration beside the values). INS-1E cytokine-induced death, ATP luminescence, 48 h; percent of positive-control rescue, neutral wells zero. 300,000 compounds, 0.8% hits;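 active means all replicates at 75% or more, or half of them and the mean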;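 further: 0% = cytokine-treated negative control wells and 100% = positive control rescue; higher means more ATP so stronger rescue from cytokine killing; wells of about 40 µL received 100 nL stock; the first replicate is given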
B2AR ag – human beta-2 adrenergic receptor agonism by FAP | P07550 | Am2.2-beta2AR cells, FAP receptor internalization, flow cytometry; reference of the scale not given here | response, % (test concentration not listed) | 340,000 compounds, 0.43% hits | AID 504454;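 active means response above a set limit, near 3 SD of response in nonfluorescent compounds, cut at about 42% in these data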;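 further: stock transfer was 100 nL into about 11 µL; a reference agonist was the positive control; negative values mostly stem from fluorescent compounds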
Target sequence (P07550 whole entry, looked up): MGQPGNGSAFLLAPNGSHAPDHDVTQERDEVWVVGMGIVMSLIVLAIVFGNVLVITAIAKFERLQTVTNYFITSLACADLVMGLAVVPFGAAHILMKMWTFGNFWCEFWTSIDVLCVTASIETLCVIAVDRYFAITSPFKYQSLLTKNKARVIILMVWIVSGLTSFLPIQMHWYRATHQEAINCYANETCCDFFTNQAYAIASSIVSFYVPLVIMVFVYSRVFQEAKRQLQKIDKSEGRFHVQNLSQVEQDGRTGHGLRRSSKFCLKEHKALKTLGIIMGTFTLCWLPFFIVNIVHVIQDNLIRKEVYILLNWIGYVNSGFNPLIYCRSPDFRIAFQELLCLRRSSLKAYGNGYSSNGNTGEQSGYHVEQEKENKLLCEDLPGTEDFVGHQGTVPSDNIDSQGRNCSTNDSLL
Calb FLC – C. albicans growth modulation with fluconazole. C. albicans CaCi-2 (fluconazole-resistant clinical isolate) + fluconazole, Alamar Blue growth, 48 h. growth inhibition, % (concentration not given with the values). 300,000 compounds, 0.57% hits. AID 1979;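 active means most replicates above 75%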;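 further: all wells also contain fluconazole at 8 µg/ml as a sub-toxic cotreatment; 0% = median of DMSO wells and 100% = median of geldanamycin control wells; wells of about 8 µL received 7.5 nL stock; the first replicate is given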
ALR H2O2 inh – inhibitors of human sulfhydryl oxidase ALR; AID 485317; 290,000 compounds, 3.8% hits; purified ALR, DTT oxidation, H2O2 HRP-luminol luminescence; inhibition, % (test concentration not listed); P55789;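 active means mean and each replicate at 75% or more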;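 further: stock transfer was 7.5 nL into about 7.5 µL; 0% = neutral wells and 100% = wells with inactivated enzyme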
Target sequence (P55789 whole entry, looked up): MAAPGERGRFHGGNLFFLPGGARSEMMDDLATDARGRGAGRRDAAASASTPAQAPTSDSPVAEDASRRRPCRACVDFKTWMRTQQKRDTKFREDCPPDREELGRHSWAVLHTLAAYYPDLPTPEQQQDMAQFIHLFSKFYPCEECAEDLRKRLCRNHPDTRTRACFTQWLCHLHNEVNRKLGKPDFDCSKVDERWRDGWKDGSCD
Ecoli rRNA inh OD600 – second read-out of Ecoli rRNA inh, no call of its own (marks repeat the call); OD600 change, %; measured here: OD600 growth;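 optical density of the mix in the first replicate; 0 = DMSO median and -100 = no signal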
Ecoli rRNA inh RFP – second read-out of Ecoli rRNA inh, no call of its own (marks repeat the call); RFP signal change, %; measured here: RFP humanized mutant strains;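 first replicate; 0 = DMSO median and -100 = no signal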
* = called active by the depositor. These rows are one share of the data (hit frequency here may not be typical).

Results for CCN1C(=O)[C@H]2[C@@H](c3ccc(-c4cc(C(C)=O)cs4)cc3)N3CCC[C@@]3(C(=O)OC)[C@H]2C1=O ?
Ecoli rRNA inh: -9; A1 inh: -8.1; LANA-H2A inh: -4.3; Beta apoptosis: 5; B2AR ag: 4; Ecoli rRNA inh OD600: 1; Ecoli rRNA inh RFP: 4.0

How did CCOc1ccccc1NC(=O)Nc1cnccn1 do in these assays?
Ecoli rRNA inh: 8; A1 inh: -0.1; LANA-H2A inh: -8.4; T cruzi repl: -1; Beta apoptosis: -2; B2AR ag: -5; Calb FLC: -19; Ecoli rRNA inh OD600: 10; Ecoli rRNA inh RFP: -0.3

Results for CCc1ccc(NC(=O)C(=O)NCCN2CCN(C(=O)c3ccco3)CC2)cc1 ?
A1 inh: 1.3; LANA-H2A inh: -11; T cruzi repl: 3; Beta apoptosis: -2; B2AR ag: -2; Calb FLC: 3; ALR H2O2 inh: -14

Results for COC(=O)Cn1cc(C(=O)c2cccs2)c2ccccc21 ?
A1 inh: 0.2; LANA-H2A inh: 2.0; T cruzi repl: 7; Beta apoptosis: -1; B2AR ag: 4; Calb FLC: 5; ALR H2O2 inh: -4

What do the screens show for `COc1cc(NC(=O)CN2C(=O)COc3ccc(S(=O)(=O)N4CCCCC4)cc32)cc(OC)c1`?
Ecoli rRNA inh: -2; A1 inh: 0.2; LANA-H2A inh: -6.9; T cruzi repl: 6; Beta apoptosis: 1; B2AR ag: -6; Calb FLC: -1; ALR H2O2 inh: -5; Ecoli rRNA inh OD600: -1; Ecoli rRNA inh RFP: -1.7

How did CC(=O)N1CCN(c2ccc(Oc3ccc([N+](=O)[O-])c(C(F)(F)F)c3)cc2)CC1 do in these assays?
A1 inh: 0.3; LANA-H2A inh: -1.7; T cruzi repl: 13; Beta apoptosis: 95*; B2AR ag: 5; Calb FLC: -15; ALR H2O2 inh: 4

How did CCOc1ccc(NC(=O)CCNS(=O)(=O)c2ccc(Br)s2)cc1 do in these assays?
A1 inh: 1.5; LANA-H2A inh: -0.8; T cruzi repl: 16; Beta apoptosis: 6; B2AR ag: -5; Calb FLC: 20; ALR H2O2 inh: -8

What do the screens show for `COc1cn(-c2ccccc2)nc1C(=O)Nc1ccc(C)cc1Cl`?
Ecoli rRNA inh: 9; A1 inh: -0.3; LANA-H2A inh: -7.0; T cruzi repl: 26; Beta apoptosis: 0; B2AR ag: -16; Calb FLC: 1; ALR H2O2 inh: -1; Ecoli rRNA inh OD600: 20; Ecoli rRNA inh RFP: 0.5

What do the screens show for `COc1cccc(OC)c1C(=O)N1CCN(Cc2ccccc2C(F)(F)F)CC1`?
A1 inh: 0.3; LANA-H2A inh: 1.5; T cruzi repl: 3; Beta apoptosis: 0; B2AR ag: 5; Calb FLC: 20; ALR H2O2 inh: -13

What do the screens show for `CC1=C(C#N)C(C)C2=C(CC(C)(C)CC2=O)N1` (stereo not drawn)?
A1 inh: 0.4; LANA-H2A inh: -0.7; T cruzi repl: -8; Beta apoptosis: -4; B2AR ag: 4; Calb FLC: 5; ALR H2O2 inh: 10

How did Cn1c(=O)[nH]c(=O)c2c1nc(SCCN1CCCCC1)n2Cc1ccccc1 do in these assays?
A1 inh: 0.6; LANA-H2A inh: 1.3; T cruzi repl: 12; Beta apoptosis: 2; B2AR ag: -3; Calb FLC: 3; ALR H2O2 inh: -2

How did CC1CCCN(S(=O)(=O)c2cccc(C(=O)NCc3ccco3)c2)C1 (stereo not drawn) do in these assays?
Ecoli rRNA inh: 3; A1 inh: 0.4; LANA-H2A inh: 0.0; Beta apoptosis: -5; B2AR ag: 1; Ecoli rRNA inh OD600: -8; Ecoli rRNA inh RFP: -2.8

How did O=C(O)c1cnc(-c2ccccc2)nc1-c1ccccc1 do in these assays?
Ecoli rRNA inh: -4; A1 inh: 0.9; LANA-H2A inh: 8.5; T cruzi repl: -2; Beta apoptosis: 0; B2AR ag: 2; Calb FLC: 8; ALR H2O2 inh: 2; Ecoli rRNA inh OD600: -7; Ecoli rRNA inh RFP: -5.7

How did COc1ccc(Cn2nnnc2C(c2cccs2)N2CCN(c3ccc([N+](=O)[O-])cc3)CC2)cc1 (stereo not drawn) do in these assays?
A1 inh: 0.7; LANA-H2A inh: -1.6; T cruzi repl: 51; B2AR ag: -2; Calb FLC: -4

How did Cc1ccc(S(=O)(=O)c2c(N)n(CCCO)c3nc4ccccc4nc23)cc1 do in these assays?
A1 inh: 0.7; LANA-H2A inh: -0.2; T cruzi repl: -4; Beta apoptosis: -9; B2AR ag: -8; Calb FLC: 3

Entries listed so far that contain a furan ring, fused or not:
Results for CCc1ccc(NC(=O)C(=O)NCCN2CCN(C(=O)c3ccco3)CC2)cc1 ?
A1 inh: 1.3; LANA-H2A inh: -11; T cruzi repl: 3; Beta apoptosis: -2; B2AR ag: -2; Calb FLC: 3; ALR H2O2 inh: -14

How did CC1CCCN(S(=O)(=O)c2cccc(C(=O)NCc3ccco3)c2)C1 (stereo not drawn) do in these assays?
Ecoli rRNA inh: 3; A1 inh: 0.4; LANA-H2A inh: 0.0; Beta apoptosis: -5; B2AR ag: 1; Ecoli rRNA inh OD600: -8; Ecoli rRNA inh RFP: -2.8

Additional structures follow.
Results for O=C(Nc1ccncc1)c1ccc(Cl)cc1 ?
Ecoli rRNA inh: 2; A1 inh: -0.2; LANA-H2A inh: -1.4; T cruzi repl: 7; Beta apoptosis: 1; B2AR ag: -7; Calb FLC: -1; ALR H2O2 inh: -3; Ecoli rRNA inh OD600: 9; Ecoli rRNA inh RFP: -1.8

Results for COc1ccccc1NS(=O)(=O)c1cc([N+](=O)[O-])ccc1N/N=C/c1c[nH]c2ccccc12 ?
A1 inh: -0.5; LANA-H2A inh: 1.2; T cruzi repl: 33; Beta apoptosis: 5; B2AR ag: -249; Calb FLC: 0; ALR H2O2 inh: 99*

What do the screens show for `Cc1cccn2c(CNCC(C)Oc3cccnc3)c(C(=O)N3CCOCC3)nc12` (stereo not drawn)?
Ecoli rRNA inh: 9; A1 inh: 0.4; LANA-H2A inh: 1.4; T cruzi repl: 20; Beta apoptosis: -7; B2AR ag: -1; Calb FLC: 7; ALR H2O2 inh: 2; Ecoli rRNA inh OD600: 5; Ecoli rRNA inh RFP: -4.8

How did O=c1[nH]nc(SCCS(=O)(=O)c2ccc(F)cc2)n1-c1ccccc1C(F)(F)F do in these assays?
A1 inh: 0.4; LANA-H2A inh: -1.2; T cruzi repl: -29; Beta apoptosis: 5; B2AR ag: 5; Calb FLC: -5; ALR H2O2 inh: -7

How did Cn1nnnc1SCc1ccc(C(=O)Nc2ccccc2F)cc1 do in these assays?
A1 inh: -6.4; LANA-H2A inh: 0.1; T cruzi repl: 1; Beta apoptosis: 0; B2AR ag: -2; Calb FLC: -17; ALR H2O2 inh: -6

Results for CC(=O)c1cccc(S(=O)(=O)N2CCC(C(=O)O)CC2)c1 ?
Ecoli rRNA inh: 13; A1 inh: 0.1; LANA-H2A inh: -0.2; T cruzi repl: -10; Beta apoptosis: -1; B2AR ag: 7; Calb FLC: 15; ALR H2O2 inh: -5; Ecoli rRNA inh OD600: 2; Ecoli rRNA inh RFP: 1.7

Results for O=C(NCc1ccc2c(c1)OCO2)c1ccc(N2CCCC2=O)cc1 ?
A1 inh: -0.9; LANA-H2A inh: -4.2; T cruzi repl: -1; Beta apoptosis: -3; B2AR ag: 4; Calb FLC: 21; ALR H2O2 inh: 9

Results for Cc1ccc(C(=O)CCC(=O)N2CCN(c3ccccc3O)CC2)cc1 ?
Ecoli rRNA inh: 2; A1 inh: -0.4; LANA-H2A inh: 6.9; T cruzi repl: -1; Beta apoptosis: -2; B2AR ag: 3; Calb FLC: 12; ALR H2O2 inh: 3; Ecoli rRNA inh OD600: 1; Ecoli rRNA inh RFP: 0.1

Results for COC(=O)c1c[nH]n2c(=O)c(Cc3ccc(F)cc3Cl)c(C)nc12 ?
A1 inh: -0.2; LANA-H2A inh: -1.9; T cruzi repl: -4; Beta apoptosis: -1; B2AR ag: 4; Calb FLC: 97*; ALR H2O2 inh: 8

Results for COc1ccc(CCC(=O)OCc2csc(CC(=O)Nc3ccccc3C)n2)cc1 ?
Ecoli rRNA inh: 5; A1 inh: 0.1; LANA-H2A inh: 0.9; T cruzi repl: -5; Beta apoptosis: -8; B2AR ag: 8; Calb FLC: 2; ALR H2O2 inh: -9; Ecoli rRNA inh OD600: 14; Ecoli rRNA inh RFP: 9.4

Results for C=CCN1C(=O)N/C(=C/c2ccc(C)o2)C1=O ?
Ecoli rRNA inh: 22; A1 inh: 1.2; LANA-H2A inh: 2.5; T cruzi repl: -7; Beta apoptosis: 14; B2AR ag: 9; Calb FLC: 8; ALR H2O2 inh: 3; Ecoli rRNA inh OD600: 17; Ecoli rRNA inh RFP: 1.8

What do the screens show for `Cc1[nH]n(-c2ccccc2)c(=O)c1N=O`?
Ecoli rRNA inh: 5; A1 inh: -2.1; LANA-H2A inh: 0.6; T cruzi repl: -1; B2AR ag: -2; Calb FLC: -1; ALR H2O2 inh: 3; Ecoli rRNA inh OD600: 7; Ecoli rRNA inh RFP: -0.4

Results for O=C(NC1=NCCS1)c1ccccc1OCc1ccccc1Cl ?
Ecoli rRNA inh: 2; A1 inh: -0.3; LANA-H2A inh: -5.3; T cruzi repl: 6; Beta apoptosis: 5; B2AR ag: -13; Calb FLC: 10; ALR H2O2 inh: -9; Ecoli rRNA inh OD600: 1; Ecoli rRNA inh RFP: -1.8

Results for Cn1ccc(C(=O)Nc2ccc3c(c2)OCCO3)n1 ?
Ecoli rRNA inh: 1; A1 inh: 0.3; LANA-H2A inh: -2.6; T cruzi repl: -5; Beta apoptosis: -4; B2AR ag: 2; Calb FLC: -6; ALR H2O2 inh: -2; Ecoli rRNA inh OD600: 3; Ecoli rRNA inh RFP: -2.5

How did CN(CC(=O)Nc1ccc(Cl)c(C(F)(F)F)c1)C(=O)C1CC(=O)N(C2CCCC2)C1 (stereo not drawn) do in these assays?
Ecoli rRNA inh: -46; A1 inh: 0.7; LANA-H2A inh: 1.6; Beta apoptosis: -6; B2AR ag: 3; ALR H2O2 inh: -1; Ecoli rRNA inh OD600: -74; Ecoli rRNA inh RFP: -15

How did O=C1COc2ccc(C(=O)CSc3nnnn3-c3ccccc3)cc2N1 do in these assays?
A1 inh: 2.8; LANA-H2A inh: 5.0; T cruzi repl: -1; Beta apoptosis: -5; B2AR ag: -2; Calb FLC: 7; ALR H2O2 inh: -1

How did O=C(CC1CC2CCC1C2)N1CCN(S(=O)(=O)c2ccccc2[N+](=O)[O-])CC1 (stereo not drawn) do in these assays?
Ecoli rRNA inh: -28; A1 inh: -0.2; LANA-H2A inh: 1.4; Beta apoptosis: -4; B2AR ag: 4; ALR H2O2 inh: 0; Ecoli rRNA inh OD600: -34; Ecoli rRNA inh RFP: -4.6

What do the screens show for `COc1ccc(NC(=O)CCSc2nnnn2C)cc1`?
Ecoli rRNA inh: 9; A1 inh: -0.7; LANA-H2A inh: -3.6; T cruzi repl: -19; Beta apoptosis: 0; B2AR ag: -5; Calb FLC: 0; ALR H2O2 inh: -4; Ecoli rRNA inh OD600: 10; Ecoli rRNA inh RFP: 1.0
